# NPYLR7 ag = activates Aedes aegypti NPYLR7 receptor. activation, % at 10 µM. actives 0.15% (n = 270,000). HEK293T NPYLR7/Galpha15, GCaMP6s calcium fluorescence; in the data active = activation above about 40%;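 also: 0% = vehicle and 100% = reference agonist at the receptor; some compounds past the cut are filed as inactive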
# NPYLR7 ag max-min = further read-out of NPYLR7 ag, marked with its call; activation, %; measured here: Max-Min RFU normalised activation; some inactives read as strong as hits;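 span of the calcium signal over five minutes; 0% = vehicle and 100% = native peptide agonist; compound fluorescence can raise it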
# The depositor's hits bear a star; & = joins results of further samples. An excerpt; rates above refer to the full screens.
# Preview, four compounds:
SMILES,NPYLR7 ag,NPYLR7 ag max-min
COCCN(CC(=O)N(Cc1ccc2c(c1)OCO2)Cc1ccc(C)o1)C(=O)COCc1ccccc1,-4,0
O=C(c1ccc(=O)[nH]n1)N1CCN(C(=O)c2ccco2)CC1,12,4
COc1ccc(NC(=O)CNC(=O)CN(Cc2ccco2)C(=O)c2ccccc2C)cc1,3,12
Cc1cccc(NC(=O)CSc2nc(=O)n(CCN3CCOCC3)c3c2CCCC3)c1C,1,7

# Main list, repeating the preview:
SMILES,NPYLR7 ag,NPYLR7 ag max-min
COCCN(CC(=O)N(Cc1ccc2c(c1)OCO2)Cc1ccc(C)o1)C(=O)COCc1ccccc1,-4,0
O=C(c1ccc(=O)[nH]n1)N1CCN(C(=O)c2ccco2)CC1,12,4
COc1ccc(NC(=O)CNC(=O)CN(Cc2ccco2)C(=O)c2ccccc2C)cc1,3,12
Cc1cccc(NC(=O)CSc2nc(=O)n(CCN3CCOCC3)c3c2CCCC3)c1C,1,7
Fc1ccc(-c2cc3ncnc(NN=Cc4ccncc4)c3s2)cc1,5,4
Cn1ncc(CN2[C@@H]3CC[C@H]2CNC(=O)C3)c1C1CC1,23&22,19&6
O=[N+]([O-])c1cc2c(c(CSc3nc4ccc([N+](=O)[O-])cc4s3)c1)OCOC2,-2,-4
O=c1[nH]c2cc(Cl)ccc2cc1CN1CCN(Cc2cccnc2)CC1,18,10
O=C(CC1C(=O)NCCN1Cc1ccccc1C(F)(F)F)NCc1ccon1 (stereo not drawn),5,3
Cc1cc2ccccc2n1CCNC(=O)Nc1c[nH]c2ccccc12,-6,-7
CCOC(=O)Cc1csc(NC(=O)CSc2nnc(C)s2)n1,7,12
CCN(CC)S(=O)(=O)NCCOc1ccc(Cl)cc1,1,8
O=C(COc1ccccc1Br)Nc1ccc2c(c1)OCO2,0,2
O=C(NCCc1cccc(C(F)(F)F)c1)c1cn(CCc2ccccc2)nn1,0,-4
CC(=O)Cn1cnc2c(nnn2-c2cccc(C)c2)c1=O,-4,-12
CNC(=O)Cn1c(C)cc(=O)c2cccc(C)c21,9,10
CC(=O)Oc1c(-c2ccc(N)cc2)c(-c2ccc(N(C)C)cc2)nn1-c1cccc(F)c1,3,4
Cc1ccccc1S(=O)(=O)NC(=O)C1(C)CCN1C(=O)CC1CCCC1 (stereo not drawn),18,15
CCN1CCN(C(=O)c2cc(-c3ccccc3OC)n3nc(C(C)(C)C)cc3n2)CC1,-1,2
CC1CN(c2cc(Cl)nc(SCC(=O)NC3CC3)n2)CCN1C(=O)c1cccc(F)c1 (stereo not drawn),-2,1
C=CCN1C(=O)c2ccccc2NC1c1cnn(-c2ccccc2)c1 (stereo not drawn),0,-1
Cc1ccc(C2CCCC2N(C)C(=O)CCS(C)(=O)=O)cc1 (stereo not drawn),2,2
C#CCN1C(=O)[C@]2(C)[C@H](c3ccccc31)[C@@H](C(=O)NC)CN2C(=O)COc1ccccc1,0,2
Cc1ccc(-c2cc(C(=O)O)n3nc(C(C)(C)C)cc3n2)cc1,-6,-3
Cc1c(-c2ccccc2)[nH]c2c(CNC(=O)Cc3ccn(C)c3)cc(Cl)cc12,10,6

# Next part:
SMILES,NPYLR7 ag,NPYLR7 ag max-min
Cc1nonc1OCCNc1ccccc1COCC(O)CN(C)C1CCCCC1 (stereo not drawn),5,6
CN1CCOc2cc(C(=O)N3CC[C@@H](c4ccc5c(c4)OCO5)[C@H](O)C3)ccc21,3,-4
O=C(COCc1ccccc1)N1CCC2(CC1)SCCN2C(=O)c1ccc(C(F)(F)F)cc1,-6,5
COC(=O)c1cc(-c2ccco2)nc2c1c(-c1ccccc1)nn2C1CCS(=O)(=O)C1 (stereo not drawn),9,2
CN1CCN(c2nc(C(=O)NCCC(F)(F)F)cs2)C1=O,-1,0
CCN(CC)CCCn1c2c(c(SCC(=O)Nc3cc(Cl)ccc3OC)nc1=O)CCC2,-1,5
COCCN(CCC(=O)NCCc1ccccc1)c1nc(Cc2cccc(OC)c2)ns1,7,16
COc1cc(OC)cc(C(=O)N2CCC3(CC2)NC(=O)c2cc(F)c(F)cc2N3)c1,3,4
CCCOc1c(CNC(=O)C2CC3(CCNCC3)CN2)cccc1OC (stereo not drawn),8,8
COc1ccc(-c2nc(C)cc(C)c2C(N)=O)c2ccc(C)nc12,22,7
Clc1ccccc1-c1ncnn1CN1CCN(c2ncccn2)CC1,4,3
CCC(C)N(CC(=O)N(CCc1ccc(OC)c(OC)c1)Cc1ccco1)S(=O)(=O)c1ccc(OC)cc1 (stereo not drawn),-2,-10
Cn1c(CSc2nnc(NCc3ccco3)s2)cc(=O)n(C)c1=O,7,5
CNC(=O)CSc1nc(-c2ccccc2)c(NC(=O)c2c(F)cccc2F)s1,-7,-13
CC(C)C(=O)Nc1ccc(N(C)C)c(CN(C(=O)c2ccc(F)cc2)C(C)c2ccccc2)c1 (stereo not drawn),16,34
N#Cc1c(N=Cc2sc3ccccc3c2O)sc2c1CCCC2,-2,-4
Cc1cccc(-n2c(-c3ccc(Cl)cc3)cc(C(=O)N3CCOCC3)c2C)c1,10,12
O=C1NCCN(Cc2ccccc2)C1CC(=O)N1CCSCC1 (stereo not drawn),9,7
CCC(C)NC(=O)CC1=CSC2=NC(C)=C(C(=O)OC(C)C)C(c3ccccc3C)N12 (stereo not drawn),-2,-5
C=CCn1cc(C(=O)NCCc2ccc(OC)cc2)c2nn(-c3ccccc3)c(=O)c-2c1,8,4
Oc1c(C(Nc2ncccn2)c2ccco2)ccc2cccnc12 (stereo not drawn),2,0
CCOc1ccccc1C(=O)Oc1ccc2ccc(O)cc2c1,-8,-10
CCCCC(O)CN(CCC)Cc1c(C)nn(-c2ccccc2)c1Oc1ccc(Cl)cc1 (stereo not drawn),-8,-3
Cc1ccc(C(C)NC(=O)c2cc3c(F)cc(Br)cc3[nH]2)o1 (stereo not drawn),-2,-3
CSCCC(=O)N(CCN1CCCCC1)CC1CCCN(C2CCCC2)C1 (stereo not drawn),-1,-2

# Remaining list, next part.
SMILES,NPYLR7 ag,NPYLR7 ag max-min
CC1(C(=O)NCCc2c[nH]c3ccccc23)CCN1Cc1ccc(OC(F)(F)F)cc1 (stereo not drawn),15,11
CCOc1ccccc1NC(=O)N(CCOC)CC(=O)N(CCc1c[nH]c2ccccc12)Cc1ccc(C(F)(F)F)cc1,23,25
Cc1c(C(=O)N(C)C)cnn1-c1ccccc1,13,13
CCn1ccnc1CN(C)C(=O)CN(c1ccc(C)cc1)S(C)(=O)=O,5,4
COc1cccc(NC(=O)c2nn(-c3ccccc3C)c(=O)cc2OC)c1,1,1
O=C1NCCN(Cc2ccc(F)cc2Cl)C1CC(=O)N(CCO)Cc1ccccc1 (stereo not drawn),-4,-6
CN(Cc1cccc(F)c1)S(=O)(=O)c1ccccc1Cl,0,1
COC(=O)C1CN(C(=O)CN(C)Cc2ccccc2Cl)c2ccccc2O1 (stereo not drawn),4,1
NS(=O)(=O)N1CCc2sccc2C1c1ccccc1 (stereo not drawn),-3,-3
CCOC1CCN(Cc2cc3cc4c(cc3[nH]c2=O)CCC4)CC1,0,-2
CC1CN(C(=O)CCNC(=O)CCOc2ccccc2Cl)CC(C)O1 (stereo not drawn),5,1
COc1ccccc1N1C[C@@H]2C[C@@H](c3nccn3-c3cccc(C)c3)N3CCC[C@@]23C1=O,7,9
O=C(CCCCCn1c(=O)[nH]c2ccsc2c1=O)NCc1cccs1,1,-2
C=CCN(CC(=O)N1CCc2sccc2C1c1ccc(F)cc1)S(=O)(=O)c1ccc(NC(C)=O)cc1 (stereo not drawn),33,36
O=C(O)c1ccc(S(=O)(=O)Nc2ccc3sccc3c2)cc1,6,3
O=C(NC1CCCCC1)ON1C(=O)CCC1=O,4,5
C(=C\c1ccco1)/CN(Cc1cccnc1)Cc1ccc2c(c1)OCO2,-1,-4
COC(=O)c1c(NC(=O)CSc2nc3ccccc3[nH]2)sc2c1CCC(C(C)(C)C)C2 (stereo not drawn),-3,-12
CCc1nc(CN(CCO)Cc2ccccc2Br)no1,1,-1
COc1cccc(O)c1O,-11,-15
Cc1ccc(-n2nnc3c(=O)n(CC(=O)NCc4ccc5c(c4)OCO5)cnc32)cc1,4,10
COc1ccc(-c2cc(N)n(-c3ccc(C(=O)NCc4cccnc4)cc3)n2)cc1,6,6
CC1(C(=O)NS(=O)(=O)c2ccccc2C(F)(F)F)CCN1C(=O)CC1CCCCC1 (stereo not drawn),2,1
CN1CC2([N+](=O)[O-])C=CC(=O)C([N+](=O)[O-])(C1)C2C1CCCCC1=O (stereo not drawn),-4,-6
O=C1NC(=S)N/C1=C\c1ccc(N2CCOCC2)c([N+](=O)[O-])c1,-10,-2

# Quoted from the listing:
# `CC1(C(=O)NS(=O)(=O)c2ccccc2C(F)(F)F)CCN1C(=O)CC1CCCCC1` (stereo not drawn) in NPYLR7 ag max-min has 1
# `COC(=O)C1CN(C(=O)CN(C)Cc2ccccc2Cl)c2ccccc2O1` (stereo not drawn) in NPYLR7 ag max-min has 1
# `O=C1NC(=S)N/C1=C\c1ccc(N2CCOCC2)c([N+](=O)[O-])c1` in NPYLR7 ag has -10
# `CC1CN(C(=O)CCNC(=O)CCOc2ccccc2Cl)CC(C)O1` (stereo not drawn) in NPYLR7 ag max-min has 1
# `CC1(C(=O)NCCc2c[nH]c3ccccc23)CCN1Cc1ccc(OC(F)(F)F)cc1` (stereo not drawn) in NPYLR7 ag max-min has 11
# `CCOC1CCN(Cc2cc3cc4c(cc3[nH]c2=O)CCC4)CC1` in NPYLR7 ag max-min has -2

# By substructure, those above containing a COOH group.
SMILES,NPYLR7 ag,NPYLR7 ag max-min
Cc1ccc(-c2cc(C(=O)O)n3nc(C(C)(C)C)cc3n2)cc1,-6,-3
O=C(O)c1ccc(S(=O)(=O)Nc2ccc3sccc3c2)cc1,6,3

# The list goes on.
SMILES,NPYLR7 ag,NPYLR7 ag max-min
CC(=O)Nn1ccc2c(cnc3nc(C)nn32)c1=O,3,8
C=CCC(O)(CC=C)c1ccc(CN(CCN2CCOCC2)Cc2ccc(F)cc2)o1,1,2
CCSCCOC(=O)C1=C(C)N(C)C(=O)NC1c1ccc(OCc2ccccc2)cc1 (stereo not drawn),-2,-5
COc1ccc(CN2CCC(C(=O)NC(c3ccc(C)cc3)c3ccccn3)CC2)cc1 (stereo not drawn),-6,2
CCCC(CCC)C(=O)Nc1c(C)nc2c(C)cccn2c1=O,2,1
CCCc1oc2cc(O)ccc2c(=O)c1Oc1ccccc1,-24,-22
CN1CCN(CCCN(C)C(=O)NCc2ccc(Cl)cc2)CC1,2,2
O=C(CCC1CCCN(Cc2ccc3cc(Cl)ccc3n2)C1)Nc1ccccc1F (stereo not drawn),14,5
COCCN(Cc1ccsc1)S(=O)(=O)CCc1ccc(OC)cc1,5,3
Cn1ccnc1SCC(=O)c1ccc(I)cc1,-1,-5
C=CCNC(=O)NC(=O)Cn1nnc(-c2cccc(C(F)(F)F)c2)n1,0,-1
CCOCCCN(CC(=O)c1c(C)c(C(=O)OCC)n(CC)c1C)C(=O)COc1ccccc1,-8,-7
CC1CN(c2ncnc3c2cnn3CCNC(=O)c2c(F)cccc2Cl)CC(C)O1 (stereo not drawn),-1,-3
Cc1nc(SCCN2C(=O)c3ccccc3C2=O)c2c3c(sc2n1)CCCC3,-7,-9
CCC1CCCCC1NS(=O)(=O)c1ccccc1Cl (stereo not drawn),-3,-4
Cc1ccc(-c2n[nH]c(=S)n2CC(=O)NC(C)c2ccc(Cl)cc2Cl)cc1 (stereo not drawn),-3,-10
CCN(C1CCS(=O)(=O)C1)S(=O)(=O)c1ccc(Br)s1 (stereo not drawn),7,2

# Whole records, quoted from the list.
# `C=CCC(O)(CC=C)c1ccc(CN(CCN2CCOCC2)Cc2ccc(F)cc2)o1` is listed as NPYLR7 ag = 1; NPYLR7 ag max-min = 2
# `CC(=O)Nn1ccc2c(cnc3nc(C)nn32)c1=O` is listed as NPYLR7 ag = 3; NPYLR7 ag max-min = 8
